# Compound activity from PubChem BioAssay.
# Six1-Eya2 blk = Six1/Eya2 interaction inhibition. Q15475+O00167. AlphaScreen GST-Six1/His-Eya2 binding, biochemical; hits give low values; control for the full effect not named in the record. activity change, % (test concentration not listed). actives 0.56% (n = 360,000). AID 651725; in the data active = activity change below about -65%; inconclusive = about -30% to -65%; inactive = above about -30%; also: % is scaled to controls: 0 for no effect and ±100 for the full control effect; compound concentration not given in the record
#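 AlphaScreen luminescence read after one hour at 37 °C in darkness. Pin-transferred compounds met GST-Six1 and His-Eya2 protein (5X stock 250 nM/500 nM) plus glutathione donor and Ni-chelate acceptor beads (5X, 50 ug/mL).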
# gsp ag = gsp mutant agonism; AID 624287; Potency, µM (highest dose often 76.9 µM), for the others: top-dose activation (cAMP increase), actives largely listed as activators; gsp mutant cells, cAMP HTRF, 30 min; control for the full effect not named in the record; actives 0.13% (n = 340,000); active = well fitted activation curve with a large enough effect; inconclusive = small, poorly fitted or top-dose-only effect, or another doubt; inactive = no such curve, though single readings can be large or run the other way; cell line not stated here;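 also: phosphodiesterase inhibitor Ro 20-1724 added with compounds to block cAMP breakdown; potency is read from the fitted curve at half-maximal effect; nearly all actives have a fitted effect of over 60% in size; about a fifth of the inactives were tested at one dose only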
#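 Cells stably selected in G418 were plated at 2000/well, grown 16-24 hr, then given compounds in DMSO with the PDE inhibitor […] (300 uM solution added) for 30 min at 37C; cAMP was read by HTRF.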
# D2 PAM = potentiates the human D2 dopamine receptor allosterically | DiscoveRx D2 beta-arrestin cells, luminescence, 90 min; 100% = 57 uM dopamine signal | actives 0.23% (n = 360,000) | potentiation, % (concentration not given with the values); active = potentiation of 50% or more; inconclusive = 30% to 50%; inactive = 30% or less;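 also: compound concentration not given in the record; tested on top of an EC20 dose of dopamine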
# Target sequence (P14416 whole entry, looked up): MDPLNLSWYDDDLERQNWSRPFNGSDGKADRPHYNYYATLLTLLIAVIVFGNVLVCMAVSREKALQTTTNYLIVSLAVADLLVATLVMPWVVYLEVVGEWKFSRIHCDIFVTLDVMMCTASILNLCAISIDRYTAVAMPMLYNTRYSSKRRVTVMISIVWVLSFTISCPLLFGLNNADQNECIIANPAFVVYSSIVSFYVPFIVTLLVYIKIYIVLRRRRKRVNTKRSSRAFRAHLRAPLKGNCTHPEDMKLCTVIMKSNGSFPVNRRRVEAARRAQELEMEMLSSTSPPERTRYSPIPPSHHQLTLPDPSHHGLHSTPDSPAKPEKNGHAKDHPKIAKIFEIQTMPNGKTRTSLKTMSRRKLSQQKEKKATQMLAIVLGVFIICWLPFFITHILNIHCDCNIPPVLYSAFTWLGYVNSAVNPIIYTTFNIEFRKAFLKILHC
#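 PathHunter beta-arrestin assay in DiscoveRx D2 cells. Compounds were added with an EC20 of dopamine (50 nM final) for 90 min at 37 deg C. Luminescence was read 1 h after detection reagent, with 57 uM dopamine as the EC100 control.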
# CtBP-E1A inh = inhibitors of CtBP/E1A interaction; activity change, % (test concentration not listed); AlphaScreen GST-E1A/His-CtBP binding, 1536-well; hits give low values; control for the full effect not named in the record; actives 0.49% (n = 340,000); in the data active means activity change below about -65%; inconclusive means about -30% to -65%; inactive means above about -30%; also: % is scaled to controls: 0 for no effect and ±100 for the full control effect; compound concentration not given in the record
#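 Protein mix (5X: 125 nM each GST-E1A, His-CtBP) was incubated with pinned compound 2 h at 37 deg C in dark, in 50 mM Tris pH 8.0 buffer with 300 mM NaCl. Glutathione donor and nickel acceptor beads followed; AlphaScreen signal read after 1 h.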
# D2 ag = agonists of human D2 dopamine receptor (beta-arrestin). P14416. DiscoveRx PathHunter D2 beta-arrestin, luminescence, 90 min; 100% = 57 uM dopamine signal. activation, % (no concentration beside the values). actives 0.084% (n = 360,000). AID 624465; in the data active = activation above about 40%; inconclusive = about 15% to 40%; inactive = below about 15%; also: compound concentration not given in the record; the text of the record calls up to 30% inactive
#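 Agonist mode: compounds alone added to overnight-plated D2 PathHunter cells for 90 min at 37 C, with 57 uM final dopamine (EC100) defining full response. Beta-arrestin recruitment detected by chemiluminescent reagent, read after 1 h at ambient temperature.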
# gsp antag = antagonists of gsp mutant (McCune-Albright syndrome). gsp-mutant cells, cAMP HTRF, 30 min; control for the full effect not named in the record. Potency, µM (titrated, usually from 76.9 µM), inactives show at the highest dose activity change, negative = inhibition, hits mostly inhibitors. actives 0.4% (n = 340,000); active = falling curve of any shape with a large fitted effect; inconclusive = falling curve, mostly with a smaller effect; inactive = flat or rising curve; cell line not stated here;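 also: intracellular cAMP measured with PDE inhibitor Ro 20-1724 present during compound exposure; potency is read from the fitted curve at half-maximal effect; % is scaled to controls: 0 for no effect and ±100 for the full control effect; nearly all actives have a fitted effect of over 65% in size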
#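 G418-selected cells were plated in DMEM/10% FBS for 16-24 h at 37C, then treated with compounds plus the PDE inhibitor […] (300 uM solution added) for 30 min at 37C. Intracellular cAMP was measured by HTRF after 30 min lysis at room temperature.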
# * hit, by the source's call; ? = inconclusive; nt = not tested or not shown; [ ] = dose if it differs, or a comment.
smiles	Six1-Eya2 blk	gsp ag	D2 PAM	CtBP-E1A inh	D2 ag	gsp antag
COc1ccc2c(c1)c1ncn(CC3CCCO3)c(=O)c1n2C (configuration not stated)	-3	5%[15.4 µM]	-6	-11	-3.5	-3%
CCCCC(=O)N(C)c1c(CC)nc2c(OCC(=O)C(C)(C)C)cccn12	1	nt	-6	-3	2.1	nt
COC(=O)[C@]1(C)N[C@H](CN(C)S(=O)(=O)c2ccc(OC(F)(F)F)cc2)[C@@H]2C(=O)N(C)C(=O)[C@@H]21	-1	nt	nt	2	-0.1	4%
COc1ccc(C(NC(=O)C2CCN(Cc3ccc(Oc4ccccc4)cc3)CC2)c2ccccc2C)cn1 (configuration not stated)	-22	nt	-12	-20	-5.0	nt
CCC(=O)c1cccc(-c2ccccc2)c1CC	19	-7%	-4	38	-2.6	-7%
CC1CCN(c2c(NCc3ccc(C(=O)N4CCc5ccccc54)cc3)c(=O)c2=O)CC1	-4	-22%	-10	-11	-4.2	2%
COc1cc(C(=O)Nc2nc3ccc(C)cc3s2)ccc1OCc1c(C)noc1C	-2	16%	-33	-2	2.8	15%
CCOC(=O)c1c(NC(=O)c2ccc(S(=O)(=O)N3CCOCC3)cc2)sc2c1CC(C)(C)NC2(C)C	-2	-26%	-3	-1	5.8	5%
COc1cc(NC(=O)CSc2nnnn2Cc2ccccc2)cc(OC)c1	4	19%	-13	nt	-4.6	1%
CC(OC(=O)c1cccnc1)C(=O)Nc1ccc2c(c1)OCO2 (configuration not stated)	14	-1%	-8	nt	4.9	6%
CC1(C)CC(=O)C(C=NCCN2CCN(C(=O)CC3CCCC3)CC2)=C(O)C1	2	9%	-24	-1	-0.4	-17%
CCOc1ccc(OCc2ccc(C(=O)NCC3CCCO3)o2)cc1 (configuration not stated)	-2	-7%	5	0	-1.4	-3%
COc1ccc(CN2C(=O)[C@@H]3C(c4ccccc4Cl)=NO[C@@H]3C2=O)cc1	2	-25%	-2	4	-1.2	4%
CCOC(=O)C1CCN(C(c2cc3ccc(C)cc3[nH]c2=O)c2nnnn2C2CCCCC2)CC1 (configuration not stated)	-1	23%	0	-2	-1.7	-19%
Cn1ccsc1=NC(=O)c1ccc(S(=O)(=O)C(F)F)cc1	6	30%	0	-1	-2.8	5%
CCOC(=O)c1[nH]c2ccc(OC)cc2c1NC(=S)N1CCN(c2ccccn2)CC1	-4	-28%	-12	-1	-1.8	-7%
Cc1ccc(CSC2=Nc3ccccc3C3=NC(CC(=O)NCc4ccco4)C(=O)N23)cc1 (configuration not stated)	-2	-41%[inhibitor]	6	-2	-4.9	4%
O=C(CC(=O)N1CCOCC1)N1CCOCC1	0	-4%	-2	5	0.8	12%
CN(C)S(=O)(=O)c1cccc(C(=O)NCC(=O)NC2CCN(Cc3ccccc3)CC2)c1	4	2%	-20	1	-3.6	9%
O=C(CCCOc1ccccc1)n1nnc2ccccc21	8	1%	-9	23	-0.6	10%
CC1CCc2c(C(=O)Nc3ccc(OC(F)(F)F)cc3)csc2C1 (configuration not stated)	13	1%	-2	1	4.3	1%
CCc1c(C(=O)N/N=C/c2cn[nH]c2-c2ccc(F)cc2)csc1C	-2	-16%	10	-11	0.1	-2%
Cc1ccc(NC(=O)Cn2cc(C=O)c3ccccc32)cc1C	2	-56%[inhibitor]	-63	nt	3.8	7%
Cn1c(Cn2c(=O)sc3ccccc32)nnc1SCC(=O)NCC1CCCO1 (configuration not stated)	6	8%	-2	-9	0.8	8%
CCOC(=O)N1CCN(c2ccccc2OC)CC1	-2	2%[15.4 µM]	1	2	-2.7	10%
CS(=O)(=O)c1sc(C(=O)NC(=O)Nc2cccc(C(F)(F)F)c2)c2c1C=CCC2	-1	1%	-16	-12	-2.5	3%
O=C(Nc1ccccc1)c1cccc(C(=O)Nc2ccccc2)n1	0	4%	4	-3	1.5	7%
CCOC(=O)CSC1=N/C(=C/c2ccc(-n3cncn3)cc2)C(=O)N1C(C)=O	-4	-10%[15.4 µM]	-3	-7	-3.1	-8%
COc1ccc([C@H]2Cc3cccc(O)c3C(=O)O2)cc1O	1	nt	-4	1	-3.3	1%
COc1ccc(C(C)(NC(C)=O)c2nc(-c3cnc4ccccc4c3)cs2)cc1 (configuration not stated)	-3	nt	-1	1	3.8	nt
CC(C)CNC(=O)N[C@@H](CC(C)C)C(=O)O	5	0%	-9	1	-4.5	11%
CCOc1cc(Br)c(C(=O)O)cc1OCC	5	-4%	19	5	-1.2	-1%
COc1ccc(C)cc1C1=Nc2ccccc2C1(C)C	7	-16%	-10	1	-6.8	2%
COC(=O)COc1ccc2oc(=O)cc(C)c2c1	-6	0%	-10	0	-1.0	-2%[15.4 µM]
CCCCOc1ccc(C(O)(CC)CCN2CCOCC2)cc1 (configuration not stated)	3	?	-8	9	0.0	-6%
CC(C)(C)C(=O)Nc1ccc(-c2csnn2)cc1	3	1%	-4	3	-2.6	-9%
N#CNC(=Nc1cccc(C(F)(F)F)c1)SCc1ccc(C(=O)O)cc1	-12	-10%	-14	-4	-2.8	-5%
CC(=O)Nc1ccc(S(=O)(=O)N2CCN(C(=O)c3ncoc3-c3ccc(F)cc3)CC2)cc1	-2	4%	-2	-10	-0.6	-2%
COc1cc(/C=N/NC(=O)CC2(C)OCCCO2)ccc1OCc1ccccc1	-1	?	0	-3	1.2	-17%
CCOC(=O)/C(C#N)=C\c1c(OCC)n(CC)c2ccccc12	-16	-3%[15.4 µM]	-12	-13	-0.3	25µM*
CC(=O)N1c2ccc(C)cc2Sc2c1ccc1ccccc21	0	-27%	-2	-3	-3.9	-28%
CCOC(=O)c1cc2c(=O)[nH]ccc2nc1C	-29	29%	-2	5	0.4	5%
O=C(OCC(=O)N1CCC(Cc2ccccc2)CC1)c1cc(Cl)ccc1O	2	6%[15.4 µM]	-6	-3	1.5	-13%
O=C(Nc1ccccc1F)C1CCCN(S(=O)(=O)c2ccc(-n3cnnn3)cc2)C1 (configuration not stated)	-1	?	-3	1	-3.0	-3%
Cc1ccc(NC(=O)CCC(=O)NNC(=O)c2ccccc2[N+](=O)[O-])c(C)c1	3	-3%	-5	-3	1.7	3%
Cc1ccc(S(=O)(=O)Nc2cc3c(cc2N2CCOCC2)n(C)c(=O)c(=O)n3C)cc1	-12	11%	-3	-22	-2.9	-10%
Cc1ccc(-n2c(SCC(=O)OC(C)C)nnc2-c2ccncc2)cc1	5	-3%	12	12	-4.4	1%
Cc1ccc(S(=O)(=O)n2nc(OC(=O)c3cccs3)cc2N)cc1	-24	-14%	-5	-9	-2.6	-5%
CN1CCC(n2[nH]c(-c3ccccc3)c(Cc3ccccc3)c2=O)CC1	7	13%	-19	0	-2.9	0%
CCCN(CCC)CCCNC(=O)CC1Nc2ccccc2NC1=O (configuration not stated)	0	-9%	2	3	1.3	-3%
COc1cccc(-c2ccc(NC(=O)C3CCCN(Cc4cnn(C)c4C)C3)cc2)c1 (configuration not stated)	-1	1%	-27	2	0.2	11%
COc1cc(C(=O)N2CCCCC2c2cc(C(=O)N3CCOCC3)no2)cc(OC)c1C (configuration not stated)	4	nt	11	2	0.9	nt
COc1ccc(CNC2CC(=O)N(C)C2=O)cc1 (configuration not stated)	3	-3%	-12	0	-1.3	7%
CCC/C(=N/NC(=O)c1ccccc1Cl)c1ccccc1	0	-6%	-9	7	0.8	-13%
O=C1N[C@@H](Cc2c[nH]c3ccccc23)C(=O)N[C@H]1Cc1ccccc1	13	nt	0	4	2.1	10%
COc1ccc(C(=O)NCc2c(C)oc(C)c2C(=O)O)cc1	-4	-3%[15.4 µM]	-4	-2	1.9	-12%
CCOc1ccc(C(C(=O)NC2CCCC2)N(CCOC)C(=O)CNC(=O)c2ccco2)cc1 (configuration not stated)	7	-3%[15.4 µM]	-12	17	-4.3	2%
Cc1sc2ncnc(SCC(=O)Nc3ncccc3O)c2c1C	-24	27%	-6	nt	-2.6	6%
COc1cc(C2C(C#N)=C(N)OC3=C2C(=O)CC(C)(C)C3)ccc1OCCN1CCOCC1 (configuration not stated)	0	-17%[15.4 µM]	-15	3	-5.8	1%
Cc1ccc(NC(=O)C2(C)CCN2Cc2ccc(OC(C)C)cc2)cc1 (configuration not stated)	6	nt	-4	0	3.1	nt

# (listing goes on)
smiles	Six1-Eya2 blk	gsp ag	D2 PAM	CtBP-E1A inh	D2 ag	gsp antag
Cc1cc(=O)n(C)c(=O)n1CCCNc1ccccc1	1	6%	-16	7	-0.4	-3%
O=C(Nc1ccccc1Cl)c1ccc2nccnc2c1	-11	?	-3	-13	5.8	3%
COc1cccc(/C=C2\N=C(SC)SC2=O)c1OC	-1	16%	0	7	-1.3	-1%
CCN1CCN(c2ccc(S(=O)(=O)N3CCCCC3)cc2NC(=O)c2cccc(OC(F)F)c2)CC1	-12	3%[15.4 µM]	-16	4	-4.9	14%
CN1C(=O)c2cccc(NC(=O)CCc3ccccc3)c2C1=O	3	-7%	6	13	-0.1	-6%
COc1ccccc1N1CCN(C(=O)c2cc(-c3ccccc3O)on2)CC1	37	-1%	-8	-1	-4.1	-13%
CCc1ccc(CN(C)Cc2nc(Cc3ccccc3)no2)nc1	-11	11%	-5	-25	-2.0	-5%
CCN(c1ccccc1)S(=O)(=O)c1ccc(Oc2ccccc2)c(N)c1	-3	17%	-9	-5	-2.7	0%
CCCN(C(=O)c1cccc(S(=O)(=O)N2CCCc3ccccc32)c1)C1CCS(=O)(=O)C1 (configuration not stated)	-4	-6%	3	nt	-1.0	4%
O=C(NCc1ccccn1)c1ccc(OC2CCN(Cc3ccc(CO)o3)CC2)cc1	2	-163%	11	5	-1.3	10%
CC1(C(=O)Nc2ccc3c(c2)OCCO3)CCC(=O)N1C1CCN(Cc2ccccc2)CC1 (configuration not stated)	1	nt	-5	7	-2.6	nt
CCn1nnnc1SCC(=O)NC1CCCC1	-6	-5%	-2	7	-1.3	6%
CN(CCC#N)C(=S)Nc1ccc(S(=O)(=O)N2CCOCC2)cc1	8	24%	-41	nt	3.3	4%
O=C(Nc1nc2ccc(Cl)cc2s1)c1ccco1	1	4%	3	-4	1.1	-1%
Cc1ccc(NC(=O)C2CC(=O)n3c(nc4ccccc43)N2)cc1 (configuration not stated)	-11	-32%[inhibitor]	-10	-6	-2.1	7%

# Compound profiles, from the list above. Values in the order: Six1-Eya2 blk | gsp ag | D2 PAM | CtBP-E1A inh | D2 ag | gsp antag
# Profile of CN1C(=O)c2cccc(NC(=O)CCc3ccccc3)c2C1=O → 3 | -7% | 6 | 13 | -0.1 | -6%
# Profile of CCn1nnnc1SCC(=O)NC1CCCC1 → -6 | -5% | -2 | 7 | -1.3 | 6%
